CSC inhib = cancer stem cell viability inhibitors, primary screen, luminescence; cancer stem cell-like cells viability; inhibition, % at 7.5 µM; 1.1% of 300,000 active;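 active = mean at 75% or more and at least half the replicates too; inconclusive = mean and replicates disagree; tested in HMLE shEcad cells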;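 note: 0% = median of negative and 100% = median of positive control wells; the first replicate is given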
HIV Env fusion = inhibitors of HIV-1 Env-driven cell-cell fusion, primary screen, HeLa-JRFL effector, CEM21 target cells, luciferase; inhibition, % at 12.3 µM; 1.1% of 360,000 active;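 active = mean replicate inhibition score of at least 50 and every replicate individually at or above 50; inconclusive = only one of the two criteria met; inactive = mean below 50 and not all replicates reaching 50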;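 note: 0% = plate neutral controls and 100% = maraviroc near 300 nM; one replicate is shown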
Rce1 inh = yeast Rce1p protease inhibitors, primary screen, biochemical, fluorescence, cell-free homogeneous; CAAX prenyl protease 2 (Saccharomyces cerevisiae (strain ATCC 204508 / S288c)), Q03530; AID 2563, 2010; yeast membranes, quenched prenylated peptide cleavage fluorescence; calls only; 0.27% of 290,000 active;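 active = fall in fluorescence gain of 50% or more versus controls, with final raw signal at or below 3038400; inconclusive = same 50% fall but final raw signal above 3038400; inactive = fall in fluorescence gain under 50%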;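 note: plate controls were neutral control wells for no effect and wells lacking membranes for full effect; tested at 10 µM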
Target sequence (Q03530 whole entry, looked up): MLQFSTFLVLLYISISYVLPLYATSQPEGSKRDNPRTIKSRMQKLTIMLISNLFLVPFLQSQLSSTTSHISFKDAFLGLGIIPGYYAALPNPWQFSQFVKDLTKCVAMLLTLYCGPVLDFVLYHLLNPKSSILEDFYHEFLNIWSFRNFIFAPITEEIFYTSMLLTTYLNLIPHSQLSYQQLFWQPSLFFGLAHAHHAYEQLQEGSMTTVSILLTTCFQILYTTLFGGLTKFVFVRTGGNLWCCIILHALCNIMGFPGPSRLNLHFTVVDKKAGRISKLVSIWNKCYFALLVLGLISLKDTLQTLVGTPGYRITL
MT1-MMP act inh = blockers of MT1-MMP proenzyme processing, primary screen, HT1080 RFP-PRO-GFP cells, GFP/RFP fluorescence. AID 651647, 2012. 0.061% of 360,000 active. GFP/RFP ratio change, % at 20 µM. GFP/RFP ratio fluorescence, overnight; percent of plate control window, DMSO zero;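 active = GFP/RFP ratio change of at least 30% with cell ATP level not reduced by more than half and red fluorescence within 50% of control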; note: strong numbers were not always called active
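Assay system – RFP-PRO-GFP reporter HT1080 cells · Compound dosing – single dose of 20 µM compound, 1% DMSO final · Incubation – overnight compound exposure at 37 °C · Measure – GFP/RFP fluorescence ratio · Benchmarks – DMSO wells and RFP-L50D-GFP cells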
Yeast UUG start = modulators of yeast start codon fidelity, primary screen, whole organism, S. cerevisiae, single point, plate reader | 0.13% of 350,000 active | AID 602363, 2012 | activity score, % at 18.7 µM | S. cerevisiae UUG-firefly luciferase reporter, luminescence/redox ratio;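 active = replicate mean at a twofold rise or more, about +100% in these data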;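 note: firefly luciferase made from a UUG start codon reports start codon fidelity; reporter light over untreated wells divided by growth signal over untreated wells; some hits fall short of that in this replicate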
PABP FP inh = PABP poly(A) RNA binding inhibitors, primary screen, biochemical, fluorescence polarization, uHTS | Polyadenylate-binding protein 1 (Homo sapiens), P11940 | AID 2014, 2009 | 1% of 290,000 active | inhibition, % at 35 µM;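 active = 50% or more with normal probe brightness, or confirmed in later tests; inconclusive = above 50% with abnormal brightness, or retests that disagree; inactive = below 50% or failed in later tests; about a fifth of its hits are not listed in these tables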;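 note: calls also rest on retests at 20 µM and on dose response follow-up; controls were probe without protein and protein plus probe with vehicle; some compounds called inactive have numbers as strong as hits; many hits fall short of the cut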
Target sequence (P11940 whole entry, looked up): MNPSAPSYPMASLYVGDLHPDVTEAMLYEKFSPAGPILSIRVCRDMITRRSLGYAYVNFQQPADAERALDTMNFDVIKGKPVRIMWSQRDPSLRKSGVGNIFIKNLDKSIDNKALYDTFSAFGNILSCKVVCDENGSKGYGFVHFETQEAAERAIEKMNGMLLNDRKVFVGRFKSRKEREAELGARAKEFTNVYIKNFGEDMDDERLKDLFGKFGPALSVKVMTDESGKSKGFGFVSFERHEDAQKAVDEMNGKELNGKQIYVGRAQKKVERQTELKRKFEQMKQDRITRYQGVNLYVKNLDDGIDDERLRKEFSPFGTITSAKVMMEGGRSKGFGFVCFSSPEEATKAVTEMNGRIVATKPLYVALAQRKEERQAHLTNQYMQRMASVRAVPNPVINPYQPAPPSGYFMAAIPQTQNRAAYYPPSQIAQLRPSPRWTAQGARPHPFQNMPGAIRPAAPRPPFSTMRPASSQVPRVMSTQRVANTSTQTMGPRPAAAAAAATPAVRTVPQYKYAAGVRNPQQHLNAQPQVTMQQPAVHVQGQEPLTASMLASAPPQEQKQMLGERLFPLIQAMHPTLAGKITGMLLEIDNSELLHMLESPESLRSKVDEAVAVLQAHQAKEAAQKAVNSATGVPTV
eIF4H inh = human eIF4H binding inhibitors, primary screen, translation initiation inhibitor project, biochemical, uHTS, fluorescence polarization | Eukaryotic translation initiation factor 4H (Homo sapiens), Q15056 | eIF4H fluorescence polarization binding assay | inhibition, % at 35 µM | 0.94% of 290,000 active;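 active = 50% or more with normal probe brightness, or confirmed in later tests; inconclusive = above 50% with abnormal brightness, or retests that disagree; inactive = below 50% or failed in later tests; about a fifth of its hits are not listed in these tables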;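 note: calls also rest on retests at 20 µM and on dose response follow-up; 0% = protein and probe with vehicle and 100% = probe without protein; strong numbers were not always called active; many hits fall short of the cut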
eIF4H inh retest = further read-out of eIF4H inh, marked with its call; inhibition, %; compound at 20 µM; confirmation average;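 mean of two retest wells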
PABP FP inh retest = also measured in PABP FP inh; calls as there; inhibition, %; compound at 20 µM; confirmation repeats;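 mean of two retest wells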
MT1-MMP act inh RFP = further read-out of MT1-MMP act inh, marked with its call; RFP signal change, %; measured here: RFP expression control read;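 0 = vehicle wells; hits needed this value within 50% of zero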
* hit, by the source's call; i = inactive; ? = inconclusive; . = not tested or not shown. A portion of the library; count on the stated rates, not on these rows.

SMILES | CSC inhib | HIV Env fusion | Rce1 inh | MT1-MMP act inh | MT1-MMP act inh RFP | Yeast UUG start | PABP FP inh | eIF4H inh | others
CN1/C(=C\C(=S)Nc2ccccc2)C(C)(C)c2ccccc21 | -2 | 53* | i | 17 | 7 | . | 18 | 68 | eIF4H inh retest=-11;PABP FP inh retest=11
COc1ccc(Cl)cc1NC(=S)NCCCN1CCCC1=O | -7 | 4 | i | 1 | 5 | . | -2 | 7
CC(O)CSc1nc2c(c(=O)[nH]c(=O)n2C)n1Cc1ccccc1Cl (stereo not drawn) | -2 | 4 | i | -3 | 2 | -7 | 5 | 83 | eIF4H inh retest=0;PABP FP inh retest=4
Cc1ccccc1-n1c(=O)cc(N2CCCCCC2)[nH]c1=O | 4 | 16 | i | -2 | -2 | 0 | -18 | 5
Cc1ccc(S(=O)(=O)N2[C@@H](c3ccccc3)C(C(=O)O)=CC[C@H]2c2ccc(C(C)C)cc2)cc1 | 20 | 5 | . | 2 | 4 | -9 | . | .
COCCNC(=O)C1CC(=O)N(c2ccc(OC)cc2)C1c1ccc(OC)cc1 (stereo not drawn) | 4 | 3 | i | -2 | 1 | -9 | -2 | 0
CCCCNCc1cc(OCC)c(OCC)cc1Br | -8 | -8 | i | 2 | -1 | 2 | -15 | -6
COC(=O)c1cn(C)c2ccc(S(=O)(=O)N3CC(C)CC(C)C3)cc2c1=O (stereo not drawn) | 0 | -19 | i | -5 | -1 | 3 | 76 | 6 | eIF4H inh retest=-3;PABP FP inh retest=0
Cc1cc(C)n(CC(=O)NN)n1 | 7 | -5 | i | 1 | -3 | . | -11 | -5
CC(C)CN(C(=O)c1cccc(S(=O)(=O)N2CCN(c3ccc(F)cc3)CC2)c1)C1CCS(=O)(=O)C1 (stereo not drawn) | 8 | -24 | i | -3 | -5 | . | . | .
Cc1ccn(-c2ccc([N+](=O)[O-])cc2)n1 | 1 | -110 | i | 4 | 1 | -4 | 4 | -2
O=c1c2c(-c3cccs3)csc2ncn1-c1ccccc1 | -2 | . | i | 2 | 7 | -8 | -1 | 4
CCOc1ccc(N2CC(C(=O)N3CC(C)OC(C)C3)CC2=O)cc1 (stereo not drawn) | -13 | -5 | i | 0 | 2 | -10 | -9 | -10
CSc1sc(C(=O)NC(=O)NCc2ccncc2)c(C)c1-c1ccon1 | -1 | -11 | i | -1 | -4 | . | 7 | 1
CCCCCc1nc(-c2nonc2N)no1 | -2 | -54 | i | -2 | 3 | -20 | 20 | 16
CCNC(=S)NNC(=O)c1cc(-c2ccc(OC)cc2)nc2ccccc12 | 26 | -139 | i | 1 | 1 | -31 | 9 | 23
CCOC(=O)c1cc2c(ccn2C)n1CC(=O)Nc1ccc(F)cc1 | 0 | -2 | i | -3 | 1 | . | 9 | 12
COc1cc(OC)c(S(=O)(=O)NCc2cccnc2)cc1NC(C)=O | . | 2 | i | 1 | 2 | -12 | -7 | -8
CCc1nc2ccc(C(=O)N(CC)CCN(C)C)cn2c1N(CC)C(=O)NCCc1ccccc1 | . | -53 | . | -5 | 4 | 7 | . | .
CCOC(=O)N1CCN(C(=O)C2CC(=O)N(c3ccc(C)cc3)C2)CC1 (stereo not drawn) | -10 | 1 | i | -11 | -3 | -18 | . | .
CC(=O)Nc1nc(-c2cccs2)cs1 | 11 | -177 | i | 2 | 0 | -20 | 4 | 4
C/C(=C(/NC(=O)c1ccccc1)C(=O)O)c1ccco1 | 21 | 6 | i | 0 | 4 | . | -1 | 74 | eIF4H inh retest=-9;PABP FP inh retest=0
N#C/C(=C\c1cn(Cc2ccc(C#N)cc2)c2ccccc12)C(=O)NCc1cccs1 | -1 | -21 | i | 6 | 5 | . | -8 | -2
CN(C)CCCNC(=O)c1cc(C(=O)Cc2ccccc2)c[nH]1 | 5 | 0 | i | 2 | 2 | . | -1 | 1
O=C(Nc1ccccc1C(=O)N1CCN(CCO)CC1)c1cccc([N+](=O)[O-])c1 | -5 | -15 | i | -4 | -1 | -13 | -5 | -8
CC(C)(C)Nc1scc(-c2ccccc2)[n+]1-c1ccccc1 | 14 | 2 | i | -3 | 1 | . | 42 | 7
COc1ccc(S(=O)(=O)N2CCCOC2CNC(=O)C(=O)NCCCn2ccnc2)cc1 (stereo not drawn) | 0 | -5 | i | 1 | 4 | 37 | 2 | 6
Cn1c(=O)oc2cc(S(=O)(=O)N3CCCC(C(=O)NCC4COc5ccccc5O4)C3)ccc21 (stereo not drawn) | -1 | 13 | i | 0 | -12 | -13 | 3 | -4
O=C(NCCc1ccc(Cl)cc1)C1CCN(C(=O)c2sccc2-n2cccc2)CC1 | 8 | . | i | -7 | -10 | . | -1 | -2
COc1ccc(S(=O)(=O)Nc2ccccc2-c2nc3ccccc3[nH]c2=O)cc1 | -7 | 9 | i | -6 | -1 | -4 | 10 | -10
CC1CN(C(=O)CCC(=O)N2CCN(c3cccc(C(F)(F)F)c3)CC2)c2ccccc2O1 (stereo not drawn) | 21 | 17 | i | 0 | -19 | -6 | . | .
COc1cc(/C=C(\NC(=O)c2ccccc2)C(=O)NC(C(=O)O)c2ccccc2)cc(OC)c1OC (stereo not drawn) | -11 | . | i | -1 | 0 | -25 | 9 | -6
O=C(Cn1nc(Cc2cccnc2)c2ccccc2c1=O)Nc1ccc2c(c1)OCO2 | -15 | ? | i | 2 | 2 | -29 | -16 | -10
O=c1c2ccccc2nc(SCc2ccccc2Cl)n1Cc1ccccc1 | 16 | -1 | i | 0 | -6 | -8 | -2 | -15
O=C(CN1C(=O)COc2ccccc21)NCCN1CCc2ccccc2C1 | -4 | . | i | -1 | 2 | -33 | -2 | -5
COc1ccc(Nc2nc(C(=O)N(CCO)Cc3ccccc3)cs2)cc1 | . | 10 | i | -1 | -2 | . | 23 | -6
CNC(=S)NNC(=O)Cc1ccc(O)cc1 | -10 | -9 | i | 1 | 3 | -6 | 3 | -4
COc1cccc(C2(O)CC(C(F)(F)F)=NN2C(=O)c2ccccn2)c1 (stereo not drawn) | 2 | -29 | i | 2 | 0 | . | -5 | 2
O=C(CCN1C(=O)c2ccccc2C1=O)N1CCN(Cc2ccc(Cl)cc2Cl)CC1 | . | 15 | i | 1 | 0 | -3 | 5 | 2
C/C(N)=C(/C#N)C(=O)CN1C(=O)NC(Cc2c[nH]c3ccccc23)C1=O (stereo not drawn) | 2 | 6 | i | -3 | 0 | -7 | 39 | 57* | eIF4H inh retest=66*;PABP FP inh retest=33
COC(=O)C1(C)NC(c2ccc(O)cc2)C2C(=O)N(c3ccc(F)cc3)C(=O)C21 (stereo not drawn) | 2 | -1 | i | -4 | -2 | -1 | 10 | 4
O=C(C1CCN(CC2CC=CCC2)CC1)N(CCc1ccccc1)Cc1ccccc1 (stereo not drawn) | 56 | 41 | i | 2 | -1 | . | -7 | 0
CCN(C(=O)COC(=O)COc1ccc(Cl)c(C)c1)C1CCS(=O)(=O)C1 (stereo not drawn) | -14 | . | . | -5 | 1 | -7 | . | .
O=C(NCCCn1ccnc1)c1cn(-c2ccccc2)nc1-c1ccc(F)cc1 | -12 | . | i | 2 | -3 | -10 | -2 | 8
CC1=C2C(=O)OC(c3ccoc3)C2(C)CCC1 (stereo not drawn) | -2 | . | i | 0 | 2 | -4 | -7 | 4
COc1ccc(Br)cc1/C=N/n1c(-c2ccccc2)n[nH]c1=S | 6 | 3 | i | 2 | -1 | -26 | 3 | 0
CN1C(=O)[C@H]2[C@@H](/C=C/c3ccccc3)N3C(=O)CN(Cc4ccccc4)C(=O)[C@@]3(C)[C@H]2C1=O | -1 | -13 | i | 7 | 3 | -16 | 8 | -5
O=c1nc(/C=C/c2ccccc2C(F)(F)F)cc(C(F)(F)F)[nH]1 | 24 | -101 | i | 0 | 0 | -8 | -9 | -4
COc1ccc(S(=O)(=O)N2CCCCCC2)cc1C(=O)OCC(=O)NCC(C)C | -15 | -40 | . | 3 | 0 | -9 | -2 | -12
Cc1c(NC(=S)N2CCN(c3cccc(Cl)c3)CC2)c(=O)n(-c2ccccc2)n1C | 3 | 14 | i | 1 | -5 | -18 | 11 | 7
Other records
SMILES | CSC inhib | HIV Env fusion | Rce1 inh | MT1-MMP act inh | MT1-MMP act inh RFP | Yeast UUG start | PABP FP inh | eIF4H inh | others
COc1ccc(S(=O)(=O)Nc2cccc(-c3ccc4nncn4n3)c2)cc1F | 54 | 14 | i | 8 | -5 | . | -9 | 1
CC1(C)CC(=O)C=C(NCCc2ccccc2)C1 | -15 | 6 | i | -2 | -4 | -10 | -5 | 1
Cc1cc(C)c(CN2CCC(CO)(CCOc3ccccc3)CC2)cc1C | 32 | -1 | i | -1 | 2 | 2 | -2 | -8
CS(=O)(=O)c1ccc(Nc2nc(C(N)Cc3ccccc3)cs2)cc1 (stereo not drawn) | . | -13 | . | -1 | -2 | -9 | . | .
COc1cccc(/C=C(\C)C(=O)c2c(C)cc(C)[nH]c2=O)c1OC | -9 | 14 | i | -3 | -1 | -9 | 6 | 0

Molecules listed so far that contain a Cl atom (seven):
SMILES | CSC inhib | HIV Env fusion | Rce1 inh | MT1-MMP act inh | MT1-MMP act inh RFP | Yeast UUG start | PABP FP inh | eIF4H inh | others
COc1ccc(Cl)cc1NC(=S)NCCCN1CCCC1=O | -7 | 4 | i | 1 | 5 | . | -2 | 7
CC(O)CSc1nc2c(c(=O)[nH]c(=O)n2C)n1Cc1ccccc1Cl (stereo not drawn) | -2 | 4 | i | -3 | 2 | -7 | 5 | 83 | eIF4H inh retest=0;PABP FP inh retest=4
O=C(NCCc1ccc(Cl)cc1)C1CCN(C(=O)c2sccc2-n2cccc2)CC1 | 8 | . | i | -7 | -10 | . | -1 | -2
O=c1c2ccccc2nc(SCc2ccccc2Cl)n1Cc1ccccc1 | 16 | -1 | i | 0 | -6 | -8 | -2 | -15
O=C(CCN1C(=O)c2ccccc2C1=O)N1CCN(Cc2ccc(Cl)cc2Cl)CC1 | . | 15 | i | 1 | 0 | -3 | 5 | 2
CCN(C(=O)COC(=O)COc1ccc(Cl)c(C)c1)C1CCS(=O)(=O)C1 (stereo not drawn) | -14 | . | . | -5 | 1 | -7 | . | .
Cc1c(NC(=S)N2CCN(c3cccc(Cl)c3)CC2)c(=O)n(-c2ccccc2)n1C | 3 | 14 | i | 1 | -5 | -18 | 11 | 7

High-throughput results deposited in PubChem BioAssay by several laboratories.
